NS1 function inh – qHTS Assay for Inhibitors of Influenza NS1 Protein Function. 0.4% of 270,000 active. AID 2326, 2010. Potency, µM (top dose mostly 46.1 µM), inactives show at the highest dose activity, positive = more growth. S. cerevisiae slowed by influenza A NS1, growth recovery by OD600; active means well fitted rising curve with a large enough effect; inconclusive means small, poorly fitted or top-dose-only effect; inactive means no such curve, though single readings can be large or run the other way; further: nearly all actives have a fitted effect of over 50% in size
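Recovery from NS1-induced slow growth read by OD600 in budding yeast switched to galactose assay medium (pH 6.0, -URA) at 1:100 dilution. Compound 23 nl per well; the matching strain lacking NS1 serves as control.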
LASV entry inh – qHTS for Inhibitors of binding or entry into cells for Lassa Virus. Lassa virus pseudotype entry inhibition, cell reporter; control for the full effect not named in the record. Potency, µM (highest dose often 37.9 µM), for the others: top-dose activity change, negative = inhibition, usual class: inhibitors. 1.2% of 300,000 active; active means well fitted inhibition curve with a large enough effect; inconclusive means small, poorly fitted or top-dose-only effect, or effect the other way; inactive means flat fitted curve, though single readings scatter; tested in HEK293 cells; further: on the % scale 0 is the no-effect control and ±100 the full control effect; nearly all actives have a fitted effect of over 50% in size; luciferase read-out
Cruzain noTriton – qHTS Assay for Promiscuous and Specific Inhibitors of Cruzain (without detergent); Cruzipain (Trypanosoma cruzi), P25779; purified cruzain, Z-FR-AMC fluorescence, no detergent; Potency, µM, for inactives: max response, negative = inhibition, usual class: inhibitors; 2.3% of 200,000 active; AID 1476, 2009;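 further: plate controls were enzyme without inhibitor for no effect and buffer without enzyme for full effect; nearly all actives have a fitted effect of over 40% in size; top concentration of the series not given in the record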
Target sequence (P25779 123-467 limits assumed): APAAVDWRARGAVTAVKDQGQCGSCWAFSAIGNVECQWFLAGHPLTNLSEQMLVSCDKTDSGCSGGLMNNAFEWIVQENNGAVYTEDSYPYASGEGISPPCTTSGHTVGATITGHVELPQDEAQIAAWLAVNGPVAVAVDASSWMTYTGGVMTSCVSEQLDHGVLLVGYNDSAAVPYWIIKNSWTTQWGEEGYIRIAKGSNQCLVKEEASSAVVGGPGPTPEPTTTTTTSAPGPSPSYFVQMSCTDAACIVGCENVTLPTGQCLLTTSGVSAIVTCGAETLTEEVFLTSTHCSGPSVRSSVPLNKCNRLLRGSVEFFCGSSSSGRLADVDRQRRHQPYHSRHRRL
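Detergent-free condition (0.00005% Triton X-100) in acetate buffer pH 5.5 with DTT. 1.5 nM enzyme and compound were pre-mixed 15 min, then 2 uM Z-FR-AMC substrate added; reaction progress from fluorescence change between first and third reads (60 s).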
StopGo reporter – High Throughput Screening for Foot and Mouth Disease Virus Antivirals; human cells with a luciferase reporter of 2A StopGo recoding; control for the full effect not named in the record; Potency, µM (titrated, usually from 57.9 µM), inactives show at the highest dose signal change, negative = less light; 1.2% of 410,000 active; AID 1159524, 2015; active = well fitted falling curve with a large enough effect; inconclusive = small, poorly fitted or top-dose-only effect; inactive = no such curve, though single readings can be large or run the other way; tested in HEK293T cells; further: on the % scale 0 is the no-effect control and ±100 the full control effect; nearly all actives have a fitted effect of over 45% in size; luciferase light after 4 h
Cruzain inh Det – qHTS Assay for Promiscuous and Specific Inhibitors of Cruzain (with detergent); Cruzipain (Trypanosoma cruzi), P25779; purified cruzain, Z-FR-AMC fluorescence, 0.01% Triton; Potency, µM, without a hit: max response, negative = inhibition, most hits filed as inhibitors; 0.43% of 200,000 active; AID 1478, 2009;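 further: plate controls were neutral wells for no effect and buffer without enzyme for full effect; nearly all actives have a fitted effect of over 40% in size; top concentration of the series not given in the record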
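Cysteine protease activity tested under reducing, mildly acidic conditions (100 mM sodium acetate pH 5.5, 5 mM DTT) plus 0.01% Triton X-100. Cruzain 1.5 nM; substrate Z-FR-AMC 2 uM; 15 min compound preincubation at room temperature.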
RE007 growth inh – qHTS Assay for Inhibitors of the HIV-1 protein Vpr | 0.21% of 360,000 active | Potency, µM (titrated, usually from 92.2 µM), for inactives: top-dose activity change, negative = less growth | S. pombe RE007 Vpr strain, BacTiter-Glo ATP luminescence, 24 h; control for the full effect not named in the record; active = well fitted falling curve with a large enough effect; inconclusive = small, poorly fitted or top-dose-only effect; inactive = no such curve, though single readings can be large or run the other way;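 further: on the % scale 0 is the no-effect control and ±100 the full control effect; nearly all actives have a fitted effect of over 50% in size; the assay follows cell death caused by Vpr and the record does not say whether a fall means rescue or toxicity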
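Fission yeast RE007 carrying one integrated HIV-1 vpr copy, seeded at OD 0.01 in PMG+AL medium with 23 nL pinned compound. Grown 24 h at 30 degrees; viability read by BacTiter-Glo luminescence after 5 min.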
SARS PLP yeast – qHTS of Yeast-based Assay for SARS-CoV PLP. Potency, µM (series often up to 32.9 µM), inactives show at the highest dose activity, positive = growth rescue. S. cerevisiae expressing SARS-CoV PLpro, growth rescue; control for the full effect not named in the record. AID 485353, 2010. 0.19% of 330,000 active; active means well fitted rising curve with a large enough effect; inconclusive means small, poorly fitted or top-dose-only effect; inactive means no such curve, though single readings can be large or run the other way; further: 0% is about no effect; nearly all actives have a fitted effect of over 55% in size; growth read by luminescence after 48 h
MARV entry inh – qHTS for inhibitors of binding or entry into cells for Marburg Virus. Marburg virus pseudotyped entry inhibition, cell reporter; control for the full effect not named in the record; about a third of the inactives were read at about 46 µM. Potency, µM (doses to about 37.8 µM), for the others: at the top dose activity change, negative = inhibition, actives largely listed as inhibitors. 1.8% of 300,000 active. AID 540276, 2011; active = well fitted inhibition curve with a large enough effect; inconclusive = small, poorly fitted or top-dose-only effect, or effect the other way; inactive = flat fitted curve, though single readings scatter; tested in HEK293 cells; about a fifth of its hits are not listed in these tables; further: on the % scale 0 is the no-effect control and ±100 the full control effect; luciferase read-out
Starred values were filed as active, the others as inactive; u = inconclusive; x = no result given; & = joins results of further samples; [ ] = remark or other dose. Unless noted, the call rests on the fitted dose curve; in most records, active means well fitted curve in the direction sought with a large enough effect; inconclusive means small, poorly fitted or top-dose-only effect, or another doubt; inactive means no such curve, though single readings can be large; an effect the other way counts as inactive or inconclusive. Potency means the concentration at half of the fitted maximal effect.

SMILES	NS1 function inh	LASV entry inh	Cruzain noTriton	StopGo reporter	Cruzain inh Det	RE007 growth inh	SARS PLP yeast	MARV entry inh
COC(=O)c1ccc2c(=O)n(CCN3CCOCC3)c(SCC(=O)C(C)(C)C)nc2c1	11%	-9%	u	19%	3.6%	2%	2%	-14%
COc1ccc(NC(=O)c2ccc(NS(=O)(=O)c3c(C)noc3C)cc2)cc1OC	6%	-9%	-6%	-3%	-1.5%	0%	15%	12%&12%
CCOC(=O)c1cc2c(=O)n3ccccc3nc2n(CC2CCCO2)c1=NC(=O)c1ccc(C)cc1 (stereo not given)	x	13%[46.1 µM]	-3%	3%	-1.9%	x	x	24%[46.1 µM]
CCOC(=O)c1c(C)n(C)c2c1cc(OC(C)=O)c1ccccc12	9%	3%	x	-8%	x	0%	-1%	u
COc1ccc(C(=O)NNS(=O)(=O)c2ccc(OC)cc2)cc1	9%	x	x	14%	x	2%	4%	x
Cc1ccc(Cl)cc1N1CCN(C(=O)CN2C(=O)c3cccc4cccc2c34)CC1	u	-14%	u	-26%	-8.4%	6%	8%	-2%
NC(=O)Nc1ccc(C(=O)OCC(=O)Nc2cccc(S(=O)(=O)NC3=NCCCCC3)c2)cc1	-1%	x	x	-7%	x	7%	4%	x
CC(C)(C)n1nnnc1C(c1cccs1)N(Cc1cccnc1)Cc1ccco1 (stereo not given)	-3%	u	7%	-17%	0.8%	14%	1%	u
O=C(COC(=O)CCC(=O)c1cccs1)Nc1cccc(S(=O)(=O)N2CCOCC2)c1	-3%	5%	6%	-3%	1.7%	-2%	0%	26%[46.1 µM]
CCOc1ccc(C2=CSC3=NCCN23)cc1	13%	4%	x	10%	x	-15%	1%	-1%
COCCNC(=O)C(c1cccs1)N(C(=O)Cn1nnc2ccccc21)c1cccc(C(C)=O)c1 (stereo not given)	-1%	-3%	10%	13%	11%	5%	2%	0%&-2%
CCOc1ccc(NC(=O)CN2C(=O)c3ccccc3Sc3ccc(C(=O)OC)cc32)cc1	x	2%[46.1 µM]	3%	-7%	-3.1%	x	x	x
Nc1ccc2c(c1)Cc1cc(Cl)c(Cl)cc1-2	x	u	x	32%[activator]	x	u	x	4%
COc1cc(CC(=O)Nc2ccc(S(=O)(=O)Nc3ncccn3)cc2)cc(OC)c1OC	-1%	0%	1%	7%	0.0%	3%	6%	u
CC(=O)c1cnc2scnn2c1=O	x	1%	x	-9%	x	12%	2%	20%[46.1 µM]
COc1ccc(-c2c3c(nc4sc(C(=O)Nc5ccccc5)c(N)c24)CCC3)cc1	x	7%	x	0%	x	0%	x	1%
COc1ccccc1CNC(=O)C(=O)NCC(c1cccs1)S(=O)(=O)c1ccc(F)cc1 (stereo not given)	x	u	0%	u	-2.9%	x	x	x
COc1ccc(-c2[nH]ncc2[C@@H]2C[C@H]3CN(Cc4ccccc4C)C(=O)[C@]34CCCN24)cc1	5%	x	x	14%	x	-6%	0%	x
Cc1cc(N2CCN(S(=O)(=O)c3ccc(Cl)cc3)CC2)c2ccccc2n1	-13%	16µM*	0%	x	-2.6%	2%	5%	u
O=C1Nc2ccccc2N=C(c2ccccc2)C1Br (stereo not given)	0%	0%[46.1 µM]	x	14%	x	2%	-2%	15%[46.1 µM]
Cc1oc(-c2ccccc2Cl)nc1CS(=O)CC(=O)N1CCN(c2cccc(C(F)(F)F)c2)CC1 (stereo not given)	x	u	u	-28%	-13%	x	x	x
CS(=O)(=O)NNP(=O)(NNS(C)(=O)=O)NC(=O)c1ccc(Br)cc1	0%	x	x	-13%	x	-8%	0%	x
CCc1nc(SCC(=O)NCc2ccccc2)c2c(=O)n(C)c(=O)n(C)c2n1	7%	x	-16%	-5%	-1.3%	-8%	4%	x
COc1ccc(Cl)cc1NC(=O)c1cc(S(=O)(=O)NC2CCCCCC2)ccc1F	x	u	-7%	36%[activator]	1.1%	x	x	x
Cc1cc(-c2ccc(C)c(S(=O)(=O)N3CCN(C(=O)c4ccco4)CC3)c2)on1	9%	x	x	-29%	x	17%	8%	x

Entries from the list above that contain an aryl thioether with sulfur outside any ring (two):
SMILES	NS1 function inh	LASV entry inh	Cruzain noTriton	StopGo reporter	Cruzain inh Det	RE007 growth inh	SARS PLP yeast	MARV entry inh
COC(=O)c1ccc2c(=O)n(CCN3CCOCC3)c(SCC(=O)C(C)(C)C)nc2c1	11%	-9%	u	19%	3.6%	2%	2%	-14%
CCc1nc(SCC(=O)NCc2ccccc2)c2c(=O)n(C)c(=O)n(C)c2n1	7%	x	-16%	-5%	-1.3%	-8%	4%	x

Returning to the listing; the 2 compounds before the break are reprinted first.
SMILES	NS1 function inh	LASV entry inh	Cruzain noTriton	StopGo reporter	Cruzain inh Det	RE007 growth inh	SARS PLP yeast	MARV entry inh
COc1ccc(Cl)cc1NC(=O)c1cc(S(=O)(=O)NC2CCCCCC2)ccc1F	x	u	-7%	36%[activator]	1.1%	x	x	x
Cc1cc(-c2ccc(C)c(S(=O)(=O)N3CCN(C(=O)c4ccco4)CC3)c2)on1	9%	x	x	-29%	x	17%	8%	x
C=CCn1c(=O)c2c(nc3n2CC(C)CN3CCc2ccccc2)n(C)c1=O (stereo not given)	-11%	x	x	u	x	3%	3%	x
O=C(CCCCCN1C(=O)c2ccccc2C1=O)NCc1ccccn1	3%	0%	-16%	-17%	0.1%	5%	-4%	0%
Cc1ccc(S(=O)(=O)NC(C)C(c2cccs2)N2CCN(c3ccccc3)CC2)cc1 (stereo not given)	-17%	x	8%	-28%	-2.8%	-5%	-11%	x
CCc1ccc(NC(=O)CSc2n[nH]c(=O)n2C2CC2)cc1	x	5%	x	-18%	x	9%	0%	5%
O=c1oc2cc(O)ccc2cc1-c1nc(-c2ccc(Cl)c(Cl)c2)cs1	x	-12%[46.1 µM]	12%	-8%	1.7%	x	x	x
Cc1nn(-c2ccccc2)nc1C(=O)Nc1ccc2c(c1)OCCO2	-33%	24%[46.1 µM]	x	4%	x	-1%	-9%	u
Cc1cccc(NC(=O)CC2C(=O)NCCN2C(=S)Nc2ccccc2)c1 (stereo not given)	-7%	-12%	-2%	x	0.2%	-4%	5%	-8%
CC1=Nc2cc(C(=O)NCCCOC(C)C)ccc2Sc2ccc(C)cc21	x	u	x	15%	x	5%	-2%	u
Cc1c(NC(=O)c2cnn3c2NC(c2ccccc2)CC3C(F)(F)F)c(=O)n(-c2ccccc2)n1C (stereo not given)	6%	-4%	0%	-17%	2.1%	5%	11%	-4%
CCOC(=O)c1c(C)oc2nc(C)nc(NCCc3ccc(S(N)(=O)=O)cc3)c12	x	-11%[46.1 µM]	4%	-20%	-5.1%	x	x	x
O=C(NC(=S)NCC1CCCO1)c1cccs1 (stereo not given)	21%	u	0%	22%	-3.5%	x	u	u
Cc1nnsc1NC(=O)OCc1ccc(C(F)(F)F)cc1	-27%	-22%	12%	0%	-2.9%	-2%	0%	-28%
CC1(OC(=O)C2CCCC2)C(=O)C=C2C=C(c3ccsc3)N(CCc3ccccn3)C=C2C1=O (stereo not given)	1%	x	x	-5%	x	-20%	0%	u
CC(=O)N1CCN(c2ccc(NC(=O)c3ccc(C(C)(C)C)cc3)cc2)CC1	8%	u	u	x	-3.9%	21%	3%	u
CC(C)Cc1nnc(NC(=O)CCC(=O)Nc2ccc(Cl)cc2)s1	12%	3%[46.1 µM]	x	-9%	x	11%	5%	-9%[46.1 µM]
CC(C)(CNCc1ccccc1)NS(=O)(=O)c1ccccc1	x	14%	x	-10%	x	-11%	1%	-19%
O=C(NC1CC1)C1CC(=O)N(C2CCCCC2)C1 (stereo not given)	10%	6%	-8%	8%	4.5%	-4%	9%	8%
O=C(/C=C/c1ccccc1)Nc1ccc2c(c1)OCCO2	-44%	u	x	-42%	x	35%	-4%	u
CN(Cc1ccco1)C(=O)C1CCN(c2nnc(-n3cccc3)s2)CC1	-1%	x	x	-3%	x	2%	4%	x
Cn1c(N)c(C(=O)COC(=O)CCOc2ccc(C(C)(C)C)cc2)c(=O)n(C)c1=O	0%	10%	x	2%	x	31%	-1%	1%[46.1 µM]
O=C1c2ccccc2C(=O)c2[nH]c(=O)[nH]c21	8%	10µM*	x	-5%	x	0%	-2%	u
Cc1nc(C)c(-c2csc(Nc3ccc(N)cc3)n2)s1	-5%	x	x	-1%	x	-5%	-10%	x
CN(C(=O)Cn1cccc1C1=NC(c2ccccc2)CO1)c1ccccc1 (stereo not given)	x	4%	x	-10%	x	13%	-2%	-7%
CCCN(CCC)C1CCc2ccc(O)cc2C1 (stereo not given)	-4%	u	6%	-16%&-12%	-2.0%	-7%[18.4 µM]	x	u
O=C(O)C1C2C=CC(C2)C1C(=O)Nc1cccc(C(F)(F)F)c1 (stereo not given)	-4%	2%	x	-24%	x	-5%	-7%	u
CCn1cc(/C=C(\NC(=O)c2ccccc2F)C(=O)N2CCOCC2)c2ccccc21	15%	x	x	11%	x	-3%	20%	x
Cc1onc(-c2ccc(Cl)cc2)c1-c1ccnn1S(=O)(=O)c1cccc(C(F)(F)F)c1	1%	-27%	x	-17%	x	-10%	1%	10µM*
COc1cccc(Oc2cc(NN3CCCCC3)c([N+](=O)[O-])cc2[N+](=O)[O-])c1OC	-9%	x	x	-24%	x	11%	6%	x
COc1ccc(CNC(=O)COC(=O)c2nc3nc(C)cc(C)n3n2)cc1	x	7%	x	-22%	x	14%	1%	-3%
O=C(c1ccccc1F)N1CCCC(C(=O)N2CCc3ccccc3C2)C1 (stereo not given)	-4%	u	x	-11%	x	-17%	0%	u

An excerpt from above, limited to StopGo reporter and Cruzain inh Det:
| SMILES | StopGo reporter | Cruzain inh Det |
| --- | --- | --- |
| CCOc1ccc(C2=CSC3=NCCN23)cc1 | 10% | x |
| COCCNC(=O)C(c1cccs1)N(C(=O)Cn1nnc2ccccc21)c1cccc(C(C)=O)c1 (stereo not given) | 13% | 11% |

Compound activity: PubChem, National Center for Advancing Translational Sciences (NCATS)
